VDR inhibitor = inhibitors of human vitamin D receptor | AID 504847 | Potency, µM, for the others: max response, negative = inhibition, most hits filed as inhibitors | hit rate 0.93% among 400,000 | VDR-SRC2-3 peptide fluorescence polarization, 2 h | P11473; active means well fitted inhibition curve with a large enough effect; inconclusive means small, poorly fitted or top-dose-only effect, or another doubt; inactive means no such curve, though single readings can be large or run the other way; further: series mostly up to about 120 µM
Target sequence (P11473 whole entry, looked up): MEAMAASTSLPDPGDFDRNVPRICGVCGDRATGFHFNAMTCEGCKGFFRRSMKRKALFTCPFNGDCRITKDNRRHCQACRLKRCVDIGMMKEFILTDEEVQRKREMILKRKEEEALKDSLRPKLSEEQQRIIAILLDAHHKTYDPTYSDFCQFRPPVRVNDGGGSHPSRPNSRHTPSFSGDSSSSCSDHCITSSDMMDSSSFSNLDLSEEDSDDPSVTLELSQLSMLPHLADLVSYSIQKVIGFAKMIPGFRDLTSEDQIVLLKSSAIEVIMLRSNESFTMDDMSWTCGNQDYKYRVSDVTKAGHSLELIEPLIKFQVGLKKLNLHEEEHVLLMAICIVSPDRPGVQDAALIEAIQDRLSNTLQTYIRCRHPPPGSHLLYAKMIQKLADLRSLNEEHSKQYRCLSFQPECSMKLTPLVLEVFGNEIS
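Two reagent solutions held at 4 deg C in the dark were dispensed, compounds pinned at 23 nl, and the mixture incubated 2 h at room temperature. Read-out: fluorescence polarization of VDR–SRC2-3 peptide binding.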
Active calls of the source: *; ? = inconclusive; & = joins results of further samples. On the % scale 0 is the no-effect control and ±100 the full control effect; potency means the concentration at half of the fitted maximal effect. A portion of the library. The share of hits here may be higher or lower than overall.

SMILES	VDR inhibitor
CCOc1ccccc1NC(=O)COC(=O)C(CC)c1ccccc1 (stereo not given)	0.6%
CCN1C(=O)C2(C(C#N)=C(N)Oc3n[nH]c(COC)c32)c2ccccc21 (stereo not given)	11.0%
Cc1nc(N2CCC(C)CC2)c2oc3ccccc3c2n1	-10.7%
Oc1ccc(-c2cn3ccccc3n2)cc1	9.3%
Cc1ccccc1C(=O)Nc1cc(-c2cc(C(C)(C)C)oc2C)nn1C	12.2%
COc1ccc(N2CCN(c3ccc(-c4nc(-c5ccccc5C)no4)cc3[N+](=O)[O-])CC2)cc1	5.0%
Cc1nn(Cc2c(F)c(F)c(F)c(F)c2F)c(C)c1NC(=O)c1ccc(COc2ccccc2Cl)cc1	-1.8%
Cc1ccccc1CS(=O)(=O)Cc1ccc(C(=O)NCCc2ccccc2)o1	-17.0%&1.5%
Cc1ccc(NC(=O)NC(=O)CN2CCN(c3ccc(O)cc3)CC2)c(C)c1	-8.3%
N#CC1=C(N)NC(SCC(=O)O)=C(C#N)C12CCCC2	0.3%
O=C(c1ccc(Br)cc1)N1CCN(CCc2ccncc2)CC1	4.4%
CCOC(=O)c1cc2c(=O)n3ccccc3nc2n(CC2CCCO2)c1=NC(=O)c1cccc(C)c1 (stereo not given)	-16.4%
O=C(Nc1ccc(-c2csc(-c3ccccc3)n2)cc1)c1ccccc1	12.7%
CN1CCN(c2ncc3nc(-c4cn(C)c5ccccc45)c(=O)n(CCc4ccccc4)c3n2)CC1	-1.5%
COc1ccc(-c2nc(NC(=O)c3cc(C(C)(C)C)nn3C)sc2C)cc1	1.0%
O=C(CNC(=O)c1ccc(S(=O)(=O)N2CCCCC2)cc1)N/N=C/c1ccco1	6.4%
O=[N+]([O-])c1ccc(C=NNC(=S)NN=Cc2ccc([N+](=O)[O-])cc2)cc1	-15.1%
Cc1ccc(Cl)cc1N1CCN(C(c2ccc(F)cc2)c2nnc(-c3ccccc3)o2)CC1 (stereo not given)	-18.0%
COc1ccc(C(C)=O)cc1CSc1nncn1C	12.5%
O=C(Nc1nnc(S(=O)(=O)Nc2ccccc2)s1)c1ccccc1Cl	-3.2%&2.7%
N#Cc1ccc(S(=O)(=O)N2CCN(c3nc(-c4cccs4)nc4ccccc34)CC2)cc1	-11.4%
COc1cc(OC)c(OC)cc1/C=C/C(=O)OCC(=O)Nc1c(C)n(C)n(-c2ccccc2)c1=O	-14.9%
COc1cc(NC(=O)SC2=NCCS2)cc(OC)c1	-16.4%
Cc1ccc(S(N)(=O)=O)cc1NC(=O)c1ccc2c3c(cccc13)CC2	-4.3%
Cc1ccc(C(=O)NCC2CCCO2)cc1[N+](=O)[O-] (stereo not given)	-10.7%

Compounds listed so far that contain fluorine, in the order listed:
SMILES	VDR inhibitor
Cc1nn(Cc2c(F)c(F)c(F)c(F)c2F)c(C)c1NC(=O)c1ccc(COc2ccccc2Cl)cc1	-1.8%
Cc1ccc(Cl)cc1N1CCN(C(c2ccc(F)cc2)c2nnc(-c3ccccc3)o2)CC1 (stereo not given)	-18.0%

Additional records follow:
SMILES	VDR inhibitor
COC1=CC(=O)C(C2CC(=O)c3c(O)cc(O)cc3O2)=CC1=O (stereo not given)	79.4µM*
O=C(NCCc1ccccc1)c1ccc2c(c1)N(Cc1ccc(F)cc1Cl)C(=O)CS2	-9.9%
CC(C)c1ccc2oc(-c3cc(NC(=O)c4cccnc4)ccc3Cl)nc2c1	10.4%
COC(=O)c1ccc(C(=O)OC)c(NC(=O)CSCc2ccc(Cl)cc2)c1	13.3%
Cc1cc(C)c(NC(=O)Cn2nc(-c3ccncc3)ccc2=O)c(C)c1	5.7%
C=CC[C@H](CC(=O)N(CCO)Cc1ccccc1)C(=O)N[C@H](COC(=O)[C@H](CC=C)CC(=O)OC(C)(C)C)Cc1ccccc1	-4.2%
CC1C(=O)Nc2ccc(S(=O)(=O)N3CCCCC3)cc2NC1=O (stereo not given)	9.7%
N#Cc1nc(COc2ccc(Cl)cc2Cl)oc1N1CCOCC1	7.3%
COCCN1C(=O)c2oc3ccccc3c(=O)c2C1c1ccc(O)c(OC)c1 (stereo not given)	2.3%
CCOc1ccc(N2C(=O)c3ccccc3NC2(C)CC)cc1 (stereo not given)	4.8%
N#Cc1ccc(OCC(=O)Nc2nc(-c3cccnc3)cs2)cc1	16.1%
COC(=O)Cc1cc(=O)n2[nH]c(SC)nc2n1	-4.1%
O=C(Nc1ccc2c(c1)OCO2)N1CCN(S(=O)(=O)c2ccc(Cl)cc2)CC1	8.9%
O=C(CSc1n[nH]c(Cc2ccccc2)n1)Nc1ccccc1Br	1.0%
N#C/C(=N/Nc1ccc([N+](=O)[O-])cc1)C(=N)N1CCCCC1	-3.6%
CCN(CC)C(=O)c1cc(Cl)ccc1NC(=O)c1ccco1	12.3%
CCOc1cccc(-c2c(C(=O)N/N=C/c3ccc(Br)cc3)nnn2-c2nonc2N)c1	-1.8%
COc1cccc(/C=N/NC(=S)NCc2ccco2)c1OC	12.3%
Clc1ccccc1CN1CCC(Cc2ccccc2)CC1	-0.1%
COc1ccc(C2=C(C)C(=O)N(Cc3ccc(C(=O)Nc4cc(C)ccc4C)cc3)S2(=O)=O)cc1	9.1%
Cc1ccc(C(=O)NNC(=O)CSc2nnc(-c3ccccc3)n2Cc2ccccc2)cc1	-15.7%
O=C(NCCC1CCCCN1S(=O)(=O)c1ccccc1)C(=O)NC1CCCC1 (stereo not given)	-10.5%
COc1ccc(Cl)cc1NC(=O)C1CCN(C(=O)Nc2ccccc2)CC1	-11.4%
CC(C)n1nccc1N(Cc1ccc(Cl)cc1)S(=O)(=O)c1ccccc1	-12.4%
O=C(CCc1nnc2ccc(NCc3ccc(F)cc3)nn12)NC1CCCC1	7.8%

(further entries)
SMILES	VDR inhibitor
CC(=O)C1=C(O)CC(c2ccccc2)CC1=NCCc1c(C)[nH]c2ccccc12 (stereo not given)	-17.4%
CCC(=O)Nc1ccc2nc(SCc3ccccc3)sc2c1	-12.8%
NC(=O)C1CCN(C(=O)CSc2nc3ccccc3s2)CC1	-16.9%
CC(C)CC(=O)Nc1ccc2c(c1)nc(CCN1CCCCC1)n2C	-2.7%
O=S(=O)(NC1CC2CCC1C2)c1ccc(Cl)cc1 (stereo not given)	9.5%
COc1cc(NC(=O)c2ccccc2)c(OC)cc1NC(=O)CN1C(=O)NC2(CCCCC2)C1=O	4.2%
COc1ccc(NC(=O)N2CCCC3(CCN(C(=O)c4cccn4C)CC3)C2)cc1	0.8%
CC(=O)N(Cc1ccccc1)c1c(N)nc(N)[nH]c1=O	-5.4%
CCCc1ccc(Oc2cc(C)nc(N3CCOCC3)n2)cc1	3.3%
COc1ccc(-c2c(C#Cc3ccsc3)c3cc(-c4ccc(CN5CCOCC5)cc4)ccc3n2C)cc1	0.1%
Cc1ccc(CNS(=O)(=O)c2ccc3c(c2)N(C)CCO3)cc1	2.4%
CC(C)OCCCNC(=O)C1CCC(=O)N1C1CCCC1 (stereo not given)	10.4%
Cc1ccc2nc(N3CCOCC3)c3nncn3c2c1	5.2%
CCOC(=O)Cc1c[nH]c2ccc([N+](=O)[O-])cc12	5.1%
CCOC(=O)c1c(/N=C/c2ccc(C)cc2O)sc2c1CCN(C)C2	10.0%
Cc1ccc(NC(=S)N/N=C/c2c(C)nn(-c3ccccc3)c2N2CCCC2)cc1	-12.2%
O=C(NNS(=O)(=O)c1ccccc1Cl)C1COc2ccccc2O1 (stereo not given)	-13.5%
COC(=O)COc1ccc(S(=O)(=O)Nc2ccccc2C(=O)OC)cc1	-2.1%
O=C(Nc1cccc(Cl)c1)NC1CC2CCC1C2 (stereo not given)	-28.0%
Cc1cc(NC(=O)COn2nnc3ccc(Cl)cc32)no1	-13.6%
Cc1cc(C)n(-c2ccc(NC(=O)C3CCCCN3C(=O)c3ccc(C)s3)cc2)n1 (stereo not given)	-15.6%
COc1cc(-c2nn3c(Cc4ccccc4)nnc3s2)cc(OC)c1OC	-15.2%
COc1ccc(-c2nnc(SCC(=O)/C(C#N)=C(\C)N)o2)cc1	17.1%
Cc1ccccc1NS(=O)(=O)c1ccc(F)cc1	-2.6%
COc1ccc(Nc2nc(N)nc(SCc3nnc(C)s3)n2)cc1	-0.7%

The final four compounds of the section above are carried over, then new ones follow:
SMILES	VDR inhibitor
COc1cc(-c2nn3c(Cc4ccccc4)nnc3s2)cc(OC)c1OC	-15.2%
COc1ccc(-c2nnc(SCC(=O)/C(C#N)=C(\C)N)o2)cc1	17.1%
Cc1ccccc1NS(=O)(=O)c1ccc(F)cc1	-2.6%
COc1ccc(Nc2nc(N)nc(SCc3nnc(C)s3)n2)cc1	-0.7%
Cc1c(C#N)sc(C(N)=O)c1C	-3.8%
CCOc1ccccc1C(=O)N[C@H](C(=O)OCC(=O)Nc1nnc(-c2ccccc2)o1)C(C)C	10.7%
COc1cccc(NC(=O)C(NCCC(C)C)c2ccccc2)c1 (stereo not given)	10.8%
COc1cccc(-c2nnc(SCC(=O)Nc3cc(C)ccc3OC)n2N)c1	-6.7%
COc1cccc(NC(=O)CS(=O)(=O)c2cccc3nsnc23)c1	2.0%
COCCNC(=O)C(C)OC(=O)c1cc2occc2n1C (stereo not given)	-12.1%
COc1ccc(-c2nn(-c3ccccc3)cc2/C=C2/SC(=S)N(CCCC(=O)O)C2=O)c(C)c1	-6.3%
CCOc1ccc(/C=N/Nc2ccccc2)cc1	-13.0%
O=C(CCC(=O)Nc1nnc(C2CCCCC2)s1)Nc1ccc(F)cc1	10.4%
Cn1cccc1/C=N\NC(=O)C1COc2ccc(C(C)(C)C)cc2O1 (stereo not given)	-6.7%
CCOC(=O)c1ccccc1NC(=O)c1cn(CC)c2nc(C)ccc2c1=O	?
CCOC(=O)N1CCN(C(=O)c2cn(C)c3ccc(S(=O)(=O)N4CCC(C)CC4)cc3c2=O)CC1	7.6%
C[C@@]12CCC3c4ccc(OS(=O)(=O)O)cc4CCC3C1CCC2O (stereo not given in full)	-1.0%
COC(=O)c1c(C)[nH]c(C(=O)COC(=O)Cc2ccc3c(c2)OCCO3)c1C	1.6%
COc1cc(OC)c(NC(=O)CCc2ccccc2)cc1Cl	-8.1%
S=C(c1ccccc1)N1CCCC1	8.0%
COc1ccc2c(c1OC)C(=O)OC2Nc1nc(-c2ccc(-c3ccccc3)cc2)cs1 (stereo not given)	-29.8%
C[n+]1c2n(c3ccccc31)N=C(c1ccc(Br)cc1)CS2	?
Cn1c(CNc2ccccn2)c(C#N)c2ccccc21	24.1%
CC(/C=C/c1ccccc1)=N/NC(=O)c1cc([N+](=O)[O-])cc([N+](=O)[O-])c1	-16.8%
CCOc1ccccc1-n1nnnc1SCC(=O)NCC1(N2CCOCC2)CCCCC1	-17.1%
COc1ccc(C)cc1NS(=O)(=O)c1ccc2c(c1)CCCN2C(C)=O	3.2%
COc1ccccc1N1CCN(c2nc3ccc(C(=O)c4ccccc4)cc3n3c(C)nnc23)CC1	2.2%
COc1ccccc1CCC(=O)Nc1ccc2c(c1)CN(Cc1ccc(CO)o1)CC2	-10.9%
Cc1cc(S(=O)(=O)NCc2cccnc2)ccc1F	8.0%

Remaining list, next part
SMILES	VDR inhibitor
COc1ccc(N2C(=O)C(C)C(Cc3ccc(C)cc3)C2=O)cc1 (stereo not given)	-4.5%
CCn1c(C(=O)N2CCC(C(=O)NCCc3ccc(OC)cc3OC)CC2)cc2sccc21	-1.2%
Cn1c(SCC(=O)Nc2ccc(F)cc2)nnc1-c1cccnc1	-23.6%
Cn1c(Cc2cccs2)nnc1SCC(=O)Nc1ccccc1	0.8%
COc1ccccc1C(=O)COC(=O)CSC(C)C(=O)Nc1cc(C)on1 (stereo not given)	-5.4%
CCOC(=O)c1cc2c(=O)n3ccccc3nc2n(CCCOC)c1=NC(=O)C(C)Oc1ccccc1 (stereo not given)	-5.9%
O=c1c(Cl)c(N2CCN(S(=O)(=O)c3ccc(F)cc3)CC2)cnn1-c1cccc(Cl)c1	-12.5%
Cc1ccc(NC(=O)c2ccc(F)c(S(=O)(=O)N3CCc4ccccc4C3)c2)cc1F	-0.3%
Cc1ccccc1C(=O)Nc1ccccc1C(=O)N/N=C\c1ccco1	1.8%
O=C(CSc1nc2cccnc2n1Cc1ccccc1)NC1CCCCC1	10.3%
Cc1nc2nc[nH]n2c(=O)c1NS(=O)(=O)c1ccc(F)cc1	5.1%
Cc1ccc(CNc2cc(-c3nn4c(C)nnc4s3)ccc2C)s1	11.5%
COC(=O)C1=C(C)N=C2SCCC(=O)N2C1c1ccc(C(=O)OC)cc1 (stereo not given)	-22.7%
Clc1cccc(CSc2nnc(-c3sccc3-n3cccc3)o2)c1	-5.2%
O=C(NCc1ccc(Cl)cc1)N1CCc2ccccc2C1	3.6%
O=C(NCc1ccco1)C(c1cccnc1)N(C(=O)Cn1nnc2ccccc21)c1ccccc1 (stereo not given)	-2.2%
CC1(C)Cc2ccccc2-c2nc(NN)[nH]c(=O)c21	2.8%
CC(C)COc1ccc(-c2nn(-c3ccccc3)cc2/C=C2/SC(=S)N(CC(=O)O)C2=O)cc1	-8.8%
COC(=O)[C@@]1(Cc2ccc(F)cc2)[C@H]2c3cc(C(=O)N(C)C)n(Cc4ccc(OC)c(OC)c4)c3C[C@H]2CN1C(=O)c1ccccc1	-8.8%
CCOc1ccc(S(=O)(=O)NCCC(=O)NCCc2ccc(C(C)C)cc2)cc1	4.5%
CCOc1ccc2c(c1)NC(c1cccs1)=NC(c1ccc(F)cc1)=N2	9.6%
S=C(NCCSCc1ccc(Cl)cc1Cl)Nc1ccccc1	11.9%
COc1cccc(Cn2c(=O)n(CC3CCC(C(=O)N4CCOCC4)CC3)c(=O)c3sccc32)c1 (stereo not given)	-0.5%
CCOc1ccc2ccccc2c1/C=N/NC(=O)CNC(=O)Cc1ccccc1	10.0%
CC(NC(=O)c1ccccc1)C(c1cccs1)N1CCOCC1 (stereo not given)	-3.5%

Compounds from the list above with a COOH group, in the order listed:
SMILES	VDR inhibitor
N#CC1=C(N)NC(SCC(=O)O)=C(C#N)C12CCCC2	0.3%
COc1ccc(-c2nn(-c3ccccc3)cc2/C=C2/SC(=S)N(CCCC(=O)O)C2=O)c(C)c1	-6.3%
CC(C)COc1ccc(-c2nn(-c3ccccc3)cc2/C=C2/SC(=S)N(CC(=O)O)C2=O)cc1	-8.8%

Assay outcomes (PubChem)
